# Tgondii IFNg = T. gondii growth inhibition with IFN-gamma, primary screen, cell-based; activity change, negative = inhibition, %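 (about 20 µM by stock and volumes)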; Toxoplasma gondii growth in IFN-gamma-treated host cells; active compounds read low; reference of the scale not given here; 69,000 tested, 3.8% active;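 active means below -70%; inconclusive means fit judged invalid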;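 further: host cells are HeLa cells infected with Toxoplasma gondii; parasite growth read as luciferase light; one replicate is shown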
# * marks the source's active call; other numbers are inactive results; i = inactive; ? = inconclusive; & = joins results of further samples. Not all compounds are listed, so the mix of outcomes need not match the whole.
SMILES,Tgondii IFNg
CN1C(=O)CC(c2cnn(C)c2)C12CCN(C(=O)c1cscn1)CC2 (stereo unspecified),6
COc1ccccc1-c1ccccc1[C@H]1[C@@H](C#N)N(C(=O)CN(C)C)[C@H]1CO,15
CC(C)CN1CC(C(=O)O)CC1=O (stereo unspecified),7
CCc1nc(-c2c(-c3ccccc3)ncn2Cc2n[nH]c3c2CCC3)c(C)[nH]1,-23
COc1cc(C2OC(=O)c3ccccc3S2)cc(OC)c1OC (stereo unspecified),-11
C[C@H]1CC(=O)NCC/C=C\C[C@@H](c2ccc3c(c2)OCO3)NC1=O,-21
CCc1ccc2occ(CC(=O)N3C[C@@H]4[C@H](C3)[C@H]3CC[C@@H]4O3)c2c1,-6
O=C(c1nc2ccccc2s1)C1CCN(C(=O)c2cc(-c3cccs3)[nH]n2)CC1,-5
Cc1cccc(NC(=O)CC(=O)N(C)CCCO)c1C,4
O=S(=O)(c1ccc(Cl)s1)N1CCC2(CC1)NCCN=C2NCc1ccccc1F,0
CCN1c2cc(C)ccc2-n2cccc2C12CCN(S(=O)(=O)c1c(C)cc(C)cc1C)CC2,-118*
O=C(O)CCCCC(CCSCc1ccccc1)SCc1ccccc1 (stereo unspecified),8
O=C(Nc1ccc(NC(=S)NCCc2ccccc2)cc1)c1ccccc1O,?
CC(C)N(C/C=C/c1ccccc1)CC1CCC(=O)N1 (stereo unspecified),0
Cc1cc(NC(=O)CCS(=O)(=O)c2ccc(Cl)cc2)c2ncccc2c1,-6
c1ccc(COC2CCN(Cc3ccco3)CC2)cc1,0
CN1CCN([C@@H]2CCN[C@H]2Cc2cnn(C)c2)CC1,13
COCC1CN(Cc2ccc(OC)cc2)Cc2nn(CC3CC3)cc21 (stereo unspecified),-10
CC(=O)NCc1nnn2c1CN(c1ncccn1)CCC2,-53
Cc1nn(CC(=O)NC(C)C)c(=O)c2nc(-c3ccccc3)sc12,-8
COC(=O)c1[nH]ncc1CN(C)Cc1csc(-c2ccccc2)n1,-1
COc1ccccc1-n1cc(C(=O)N2CC(c3cccnc3)C2)cn1,10
Cc1csc(-c2[nH]ncc2-c2ccsc2)n1,-2
CS(=O)(=O)N1C[C@@H](O)COC[C@H]2O[C@H](CC(=O)NCc3ccccc3)CC[C@@H]21,18
COc1ccc(CN2CCc3ncnc(N4CCCC4)c3CC2)cc1,-24

# Among those listed so far, 3 contain a thiophene ring, fused or not.
SMILES,Tgondii IFNg
O=C(c1nc2ccccc2s1)C1CCN(C(=O)c2cc(-c3cccs3)[nH]n2)CC1,-5
O=S(=O)(c1ccc(Cl)s1)N1CCC2(CC1)NCCN=C2NCc1ccccc1F,0
Cc1csc(-c2[nH]ncc2-c2ccsc2)n1,-2

# Later entries:
SMILES,Tgondii IFNg
FC(F)(F)CCc1ccnc(NCc2ccc3c(c2)OCCCO3)n1,-7
Oc1ccc(Cl)cc1C1=Nc2ccccc2N=C(c2ccco2)C1,-4
CC(C)(C)c1ccc(C(=O)N2CCOCC2)s1,115
CO[C@@H]1CC[C@H]2CCOc3c(C#N)cccc3C(=O)N(C)C[C@@H](OC)[C@@H](C)C(=O)N(C)C[C@H]1O2,-32
COc1cccc(S(=O)(=O)N(C)C[C@@H]2OCc3ccccc3-c3c(n(C)c4ccccc34)C(=O)N([C@H](C)CO)C[C@@H]2C)c1,-57
COc1ccccc1NC(=O)N1CC(=O)N2[C@@H](CO)[C@@H](c3ccc(C#CC(C)C)cc3)[C@@H]2C1,7
Cc1ccc2nc(NCCCO)[nH]c2c1,27
COC(=O)c1ccc2c(c1)nc(N1CC(c3cccnc3)C1)n2C,-41
COc1ccc(-c2cc3c(=O)n(Cc4nc(-c5ccccc5OC)oc4C)ccn3n2)cc1,4
CC(=O)c1ccccc1-c1cccc(C(=O)NC(C)C)c1,6
CCCN(CC1CC1)c1nc(C)nc(Nc2c(Cl)cc(Cl)cc2Cl)c1Cl,-29&-25
COCCC(=O)N1Cc2cc(-c3ccn[nH]3)ccc2C1c1cnco1 (stereo unspecified),6
COCCc1ncc(CN(Cc2ccncc2)Cc2ccc3c(c2)OCO3)cn1,-71*
Cc1ccc(-n2c(Cc3c(C)n[nH]c3C)n[nH]c2=O)cc1C,0
C=CCN(Cc1cnc(-c2cccc(C)c2)nc1)Cc1ccco1,-30
CN(C)c1ncc(C(=O)NCCCN2CCCc3ccccc32)cn1,8
CCCS(=O)(=O)N1C[C@H]2C[C@@H](Cc3nc(C)no3)O[C@H]2C1,2
CC(NC(=O)CN1CCc2ccccc2C1)c1cn2ccsc2n1 (stereo unspecified),5
COc1ccccc1OCC(=O)N1CCC[C@]2(C[C@H](OC)CO2)C1,3
COc1ccc(C#Cc2ccc([C@@H]3[C@H]4CN(C(=O)NC(C)C)CC(=O)N4[C@H]3CO)cc2)cc1,-38
O=S(=O)(c1cccc2ccccc12)N1CC(c2cccnc2)C1,-46
Cc1oc(-c2ccc(Cl)cc2)nc1Cn1ccn2nc(-c3ccc(F)cc3)cc2c1=O,53
Cc1ccc(-n2c(SCc3nc(-c4cccc(C)c4)oc3C)nc3c(=O)[nH]cnc32)cc1,i
O=C(Cn1ncc2c(N3CCOCC3)ncnc21)Nc1ccc(OC(F)(F)F)cc1,136
Cc1c(C(=O)N2CC[C@@H]3O[C@@H](C)C[C@@H]3C2)oc2ccccc12,33

# Quoted from the listing.
# Result of `Cc1c(C(=O)N2CC[C@@H]3O[C@@H](C)C[C@@H]3C2)oc2ccccc12` under Tgondii IFNg: 33
# Result of `COc1cccc(S(=O)(=O)N(C)C[C@@H]2OCc3ccccc3-c3c(n(C)c4ccccc34)C(=O)N([C@H](C)CO)C[C@@H]2C)c1` under Tgondii IFNg: -57
# Result of `O=C(Cn1ncc2c(N3CCOCC3)ncnc21)Nc1ccc(OC(F)(F)F)cc1` under Tgondii IFNg: 136

# Looked up by structure from above, 7 records:
SMILES,Tgondii IFNg
COCCc1ncc(CN(Cc2ccncc2)Cc2ccc3c(c2)OCO3)cn1,-71*
C=CCN(Cc1cnc(-c2cccc(C)c2)nc1)Cc1ccco1,-30
CCCS(=O)(=O)N1C[C@H]2C[C@@H](Cc3nc(C)no3)O[C@H]2C1,2
COc1ccccc1NC(=O)N1CC(=O)N2[C@@H](CO)[C@@H](c3ccc(C#CC(C)C)cc3)[C@@H]2C1,7
Cc1ccc(-n2c(Cc3c(C)n[nH]c3C)n[nH]c2=O)cc1C,0
CC(=O)c1ccccc1-c1cccc(C(=O)NC(C)C)c1,6
Oc1ccc(Cl)cc1C1=Nc2ccccc2N=C(c2ccco2)C1,-4

# Returning to the listing, starting 5 compounds before the break.
SMILES,Tgondii IFNg
O=S(=O)(c1cccc2ccccc12)N1CC(c2cccnc2)C1,-46
Cc1oc(-c2ccc(Cl)cc2)nc1Cn1ccn2nc(-c3ccc(F)cc3)cc2c1=O,53
Cc1ccc(-n2c(SCc3nc(-c4cccc(C)c4)oc3C)nc3c(=O)[nH]cnc32)cc1,i
O=C(Cn1ncc2c(N3CCOCC3)ncnc21)Nc1ccc(OC(F)(F)F)cc1,136
Cc1c(C(=O)N2CC[C@@H]3O[C@@H](C)C[C@@H]3C2)oc2ccccc12,33
CN(C)C(=O)N1CCc2ccc(=O)n(CC3CCOCC3)c2CC1,-51
COCc1nnc(NC(=O)CN2CCCC3(C2)CN(C)C(=O)O3)s1 (stereo unspecified),-8
COCC(NC(=O)C(=O)N1CCc2ccccc2C1)c1ccnn1C (stereo unspecified),0
C=CCn1cc(CN(C)C(C)c2ccon2)c(C)n1 (stereo unspecified),1
Cc1ccccc1CN1CCC(CNC(=O)Cc2cccnc2)C1 (stereo unspecified),4
Cc1cnccc1CN(C)C(=O)C(C)(C)NC(=O)c1cccs1,-8
NC(=O)COc1ccc(CN2CC[C@@]3(O)CCCC[C@H]3C2)cc1Cl,-32
CCS(=O)(=O)N1CC2(C1)CN(S(=O)(=O)c1cn(C)cn1)[C@@H](CO)c1[nH]c3cc(OC)ccc3c12,24
O=S(=O)(c1ccccc1)N1CC2(C1)[C@@H](c1ccccc1)[C@@H](CO)N2CCC(F)(F)F,-3
Cc1cc(F)ccc1S(=O)(=O)N1CCNC(C(=O)O)C1 (stereo unspecified),-3
C[C@@H]1CN([C@@H](C)CO)C(=O)c2cc(-c3ccncc3)cnc2O[C@@H]1CN(C)C(=O)CN1CCOCC1,-18
CCN1C(=O)C=CC1=O,18
CCc1ccccc1NC(=O)N1CCc2nc(-c3ccc(C)cc3)sc2C1,-3
COC(=O)[C@@H]1C[C@@H](N(C)C)CN1C(=O)CC(=O)Nc1ccc(C)cc1,68
Cn1c(=O)c(-c2nc(-c3cccs3)no2)c(O)c2ccc(F)cc21,-9
CCOc1ccc(-c2nc(CN3CCN(C(=O)Nc4cccc(C)c4)CC3)c(C)o2)cc1,-14
C[C@@H]1CN([C@H](C)CO)S(=O)(=O)c2ccc(-c3cncnc3)cc2O[C@H]1CN(C)C(=O)NC1CCCC1,-9
CNc1nc(C(=O)N[C@@H]2CC[C@@H](N)C2)cs1,4
O=C(c1ccccc1F)N1CCn2nnc(COc3ccccn3)c2C1,296
C=C(C)[C@@H]1CC[C@]2(C(=O)O)CC[C@]3(C)[C@H](CC[C@@H]4[C@@]5(C)CC[C@H](OC(=O)CC(C)(C)C(=O)O)C(C)(C)[C@@H]5CC[C@]43C)[C@@H]12,-73*
COc1cccc(NC(=O)Nc2ccc3c(c2)C(=O)N(C)C[C@@H](OC)[C@H](C)CN(CC2CC2)[C@H](C)CO3)c1,63
O=C(COc1ccc(NC2=NS(=O)(=O)c3ccccc32)cc1)N1CCOCC1,2
COc1ccccc1CNC(=O)CCC1N=C2c3ccccc3N=C(SCc3ccccc3F)N2C1=O (stereo unspecified),-7
Cc1cc2cc(NC(=O)c3nc4ccccc4n(C)c3=O)cc(Cl)c2o1,28
Cc1nn(CC(=O)NCCN2CCOCC2)c(=O)c2nc(-c3ccccc3)sc12,7
CCc1csc(CNC(=O)c2ccc(-c3ccc4c(c3)OCO4)nc2)n1,-46
